GIV Gai3 FP = GIV-Galpha-i interaction inhibition. Galpha-i3/FITC-GIV peptide fluorescence polarization, 90 min; stronger effect = lower value; scaled: aluminum fluoride 0%, vehicle 100%. percent of control (FP), % (no concentration beside the values). hit rate 0.42% among 210,000;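 active = replicate mean at 85% of control or lower, very high polarization wells dropped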;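 also: wells of about 15 µL received 100 nL stock; the first replicate is given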
Target sequence (P08753 whole entry, looked up): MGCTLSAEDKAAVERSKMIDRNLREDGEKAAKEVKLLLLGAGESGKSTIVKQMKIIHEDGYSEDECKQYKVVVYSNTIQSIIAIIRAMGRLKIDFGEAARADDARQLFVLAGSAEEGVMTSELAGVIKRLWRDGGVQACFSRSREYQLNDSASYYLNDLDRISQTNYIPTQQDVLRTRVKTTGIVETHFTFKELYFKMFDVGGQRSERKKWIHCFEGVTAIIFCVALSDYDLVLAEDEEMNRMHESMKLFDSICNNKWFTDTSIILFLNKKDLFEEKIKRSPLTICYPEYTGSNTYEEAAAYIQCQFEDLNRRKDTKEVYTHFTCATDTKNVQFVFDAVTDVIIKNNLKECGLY
Sa growth 42C = blocks Staphylococcus aureus growth. S. aureus RN4220 growth, OD600, 20 h, 42 °C; stronger effect = lower value. relative growth, % (test concentration not listed). hit rate 0.53% among 170,000. AID 720641;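 active = growth at 42 °C up to 50% and 20 or more points under that at 30 °C, or under 10% at both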;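 also: 300 nL library stock went into each well; scaled to the means of positive and negative controls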
HCMV UL50-53 inh = disrupts HCMV UL50-UL53 complex binding; inhibition, % (test concentration not listed); HTRF UL50-UL53 interaction, normalized percent inhibition; AID 1918969; hit rate 0.15% among 190,000;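 active = both replicates at 50% or more, plus weaker picks with an unusually low signal ratio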;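 also: stock transfer was 100 nL into about 20 µL; 0% = negative control wells and 100% = wells with untagged competitor protein; inactives centre near -12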
Sa growth 42C second temp = second read-out of Sa growth 42C, no call of its own (marks repeat the call); relative growth, %; measured here: growth at 30 °C;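 optical density after 20 h as mean of two plates; 100% = untreated growth and lower means inhibition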
* marks the source's active call; other numbers are inactive results; . = no result given; & = joins results of further samples.

SMILES | GIV Gai3 FP | Sa growth 42C | Sa growth 42C second temp | HCMV UL50-53 inh
CC1(C)C2CCC1(C)C(NC(=O)c1cc(=O)[nH]c3ccccc13)C2 (stereo not given) | . | 98 | 91 | -16
C=CCN1C(=S)N(c2ccccc2)C2CS(=O)(=O)CC21 (stereo not given) | 102 | 92 | 95 | -11
CCC(Oc1cccc(Cl)c1)C(=O)NN1CCN(C)CC1 (stereo not given) | 101 | 100 | 108 | 0
CCOc1ccc(CNC(=O)C2CCN(S(=O)(=O)c3cn(C)cn3)CC2)cc1OC | 98 | 94 | 88 | .
COc1ccc(C(CCNCc2ccccc2)C2CCOC(C)(C)C2)cc1 (stereo not given) | . | 98 | 90 | 0
COC(=O)c1scc(-c2ccccc2)c1S(=O)(=O)Nc1ccc(C)c(Cl)c1 | 99 | 113 | 82 | .
Cc1cccc(N2CCN(S(=O)(=O)c3ccc4oc(=O)c5ncn(C)c5c4c3)CC2C)c1 (stereo not given) | 101 | 89 | 100 | .
Fc1ccc(-n2c(Cc3ccsc3)n[nH]c2=S)cc1 | 107 | 88 | 80 | -23
Cc1cccc(N2C(=O)c3ccc(C(=O)Nc4ccccc4O)cc3C2=O)c1 | 101 | 110 | 83 | -24
CCN(CC)S(=O)(=O)c1ccc(Cl)c(C(N)=O)c1 | 103 | 95 | 117 | -1

Arranged by value in Sa growth 42C (falling): three from the list above
SMILES	Sa growth 42C
COC(=O)c1scc(-c2ccccc2)c1S(=O)(=O)Nc1ccc(C)c(Cl)c1	113
CCC(Oc1cccc(Cl)c1)C(=O)NN1CCN(C)CC1 (stereo not given)	100
COc1ccc(C(CCNCc2ccccc2)C2CCOC(C)(C)C2)cc1 (stereo not given)	98

Record cards, as listed above:
Record of CCOc1ccc(CNC(=O)C2CCN(S(=O)(=O)c3cn(C)cn3)CC2)cc1OC → GIV Gai3 FP = 98; Sa growth 42C = 94; Sa growth 42C second temp = 88; HCMV UL50-53 inh = .
Record of COc1ccc(C(CCNCc2ccccc2)C2CCOC(C)(C)C2)cc1 (stereo not given) → GIV Gai3 FP = .; Sa growth 42C = 98; Sa growth 42C second temp = 90; HCMV UL50-53 inh = 0

(list continues)
SMILES | GIV Gai3 FP | Sa growth 42C | Sa growth 42C second temp | HCMV UL50-53 inh
CCc1ccc[n+](-c2[nH]c(=O)sc2/C=N/N=C(/N)[O-])c1 | . | 97 | 95 | -92
CCOC(=O)c1ccc(N2C(=O)c3[nH]nc(-c4ccc(OC)cc4)c3C2c2ccc(C)cc2)cc1 (stereo not given) | 109 | 110 | 94 | -16
CCOC(=O)N1CCc2c(sc3c2C(=O)NC(c2cc(OC)c(O)c(OC)c2)N3)C1 (stereo not given) | 179 | 110 | 92 | .
COc1cccc(C(=O)NCc2nc(-c3ccccc3Cl)no2)c1 | 104 | 80 | 89 | -13
COC(=O)c1ccccc1NC(=O)CSc1nc2ccccc2nc1Cc1ccccc1OC | 98&104 | 102 | 101 | .
O=C(CSc1nc2ccccc2[nH]1)Nc1ccc(Cl)c(C(=O)O)c1 | 101 | . | . | 6
O=C(CN1CCCCC1)Nc1nonc1NC(=O)CN1CCCCC1 | 101 | 103 | 98 | -4
Cc1onc(-c2ccccc2)c1C(=O)NC1CCS(=O)(=O)C1 (stereo not given) | 94 | 98 | 88 | -20
Cc1cccc(-n2nnc(-c3nc(-c4ccccc4)no3)c2N)c1C | 104 | 115 | 87 | .
Cc1[nH]c2ccccc2c1C(=O)C(C)N1CCN(C(=O)c2ccccc2)CC1 (stereo not given) | . | 80 | 84 | -25
Cc1ccc(CCNC(=O)CS(=O)Cc2nc(-c3ccccc3Cl)oc2C)cc1 (stereo not given) | 106 | 109 | 82 | -36
CCCCCC(=O)Nc1ncc2c(n1)CC(c1ccc(C(C)(C)C)cc1)CC2=O (stereo not given) | 102 | . | . | -23
O=c1[nH]c2ccccc2n1CN1CCC(c2nc3ccccc3s2)CC1 | . | 80 | 97 | -15
Cc1ccc(NC(=O)c2ccc3ncsc3c2)c(O)c1 | . | 82 | 98 | -9
O=C1c2cccnc2C(=O)N1c1ccccc1 | 109 | 107 | 88 | -4
c1cnc(SCc2cn3ccsc3n2)nc1 | . | 85 | 83 | -25
CCC(C(=O)NCc1ccc(OC)c(OC)c1)n1nc(C)c2c(C)n(-c3ccc(C)cc3)nc2c1=O (stereo not given) | 99 | 94 | 88 | .
Cc1ccc(C2CCCN2C(=O)c2cc(C(C)C)no2)cc1 (stereo not given) | 105 | . | . | -31
Cc1ccc(S(=O)(=O)N2CCCN(c3nc4cc(Cl)ccc4n4cccc34)CC2)cc1 | 101 | . | . | -6
CC(=O)Nc1ccc(C)cc1-c1nc2ccccc2n(C(C)C(=O)Nc2ccc(C)cc2C)c1=O (stereo not given) | 105 | . | . | -15
CCS(=O)(=O)c1ccc(OC)c(N2NOC=C2O)c1 | 105 | 114 | 77 | 9
COc1ccc(C)cc1CCNCc1cnn(-c2ccccc2)n1 | . | 82 | 98 | -24
CCOC(=O)c1ccc(N=C2SC(C(=O)Nc3cccc(C)c3)CC(=O)N2C)cc1 (stereo not given) | 104 | . | . | -21
Cc1noc(C)c1-c1nc(CS(=O)(=O)c2ccsc2)no1 | 104 | 89 | 85 | -34
c1ccc2c(c1)CCN(c1nc3cc4c(cc3s1)OCO4)C2 | 100 | 102 | 87 | .
Cc1ccc(OCC(=O)Nc2noc(-c3ccccc3)n2)cc1 | 97 | . | . | 14
O=C1CC(C(=O)Nc2cccc(F)c2)n2c(nc3ccccc32)N1 (stereo not given) | 104 | 99 | 92 | -9
Cc1ccc(NC(=O)CN(C)S(=O)(=O)c2ccc3nc(C)sc3c2)c(C)c1 | 107 | 99 | 94 | -12
CC(=O)N1CCc2cc(CNS(=O)(=O)c3ccc(Cl)s3)ccc21 | 98 | 83 | 71 | .
COc1ccccc1Cn1c(C2CC(=O)N(c3ccccc3OC)C2)nc2ccccc21 (stereo not given) | 104 | 110 | 80 | -26

Rewritten in markdown: entries from further up.
| SMILES | GIV Gai3 FP | Sa growth 42C | Sa growth 42C second temp | HCMV UL50-53 inh |
| --- | --- | --- | --- | --- |
| O=C1CC(C(=O)Nc2cccc(F)c2)n2c(nc3ccccc32)N1 (stereo not given) | 104 | 99 | 92 | -9 |
| CCOC(=O)c1ccc(N=C2SC(C(=O)Nc3cccc(C)c3)CC(=O)N2C)cc1 (stereo not given) | 104 | . | . | -21 |
| CC(=O)N1CCc2cc(CNS(=O)(=O)c3ccc(Cl)s3)ccc21 | 98 | 83 | 71 | . |
| c1ccc2c(c1)CCN(c1nc3cc4c(cc3s1)OCO4)C2 | 100 | 102 | 87 | . |

Continued:
SMILES | GIV Gai3 FP | Sa growth 42C | Sa growth 42C second temp | HCMV UL50-53 inh
COc1ccc2nc(Nc3nc4ccccc4s3)sc2c1 | 100 | 108 | 83 | -25
CSc1cccc(NC(=O)CNS(=O)(=O)c2ccc(C)cc2)c1 | 99 | 102 | 92 | -5
Cc1ccc2c(c1)C(C)(C)C(=O)N2CC(=O)N1CCCC1 | 99 | . | . | -29
CC1CCN(C(=O)CSc2nc(-c3ccco3)nc3c2c(=O)n(C)c(=O)n3C)CC1 | 104 | 103 | 93 | .
Cc1ccc2c(c1)c1c(c(=O)n(-c3ccccc3)c(=O)n1Cc1cc(=O)n3ccccc3n1)n2C | 101 | . | . | -2
CCSc1oc(-c2cccs2)nc1S(=O)(=O)c1ccc(Br)cc1 | 102 | 93 | 87 | -32
CCc1cccc(NC(=O)c2cc3c(=O)[nH]c4ccccc4c3n2C)c1 | 99 | 87 | 99 | 4
CCCCOc1ccccc1C(=O)N(Cc1cccc(F)c1)Cc1ccco1 | 110 | 70 | 64 | -5
O=C(CSc1nnc(-c2ccc(Cl)cc2)o1)N1CCc2ccccc21 | 105 | 106 | 84 | -6
C=CCNC(=O)c1sc(N2CCCC2)nc1N | 106 | . | . | -6
COC(=O)c1sc(N)c(C(=O)OC)c1COC(=O)CSc1nnnn1-c1cc(C)ccc1C | . | 105 | 85 | -28
Cc1c(C)n(-c2ccccc2)c2ncn(CCC(=O)NCc3cccnc3)c(=O)c12 | 106 | . | . | 24
CC1CCN(S(=O)(=O)c2cn(CC(=O)N(C)Cc3ccccc3)c(=O)c3ccccc23)CC1 | 103 | 109 | 94 | .
COc1ccc(CCNC(=O)CCc2cn(Cc3ccc(C)cc3)c3ccccc23)c(OC)c1OC | 103 | 113 | 83 | .
Cc1cc(=O)oc2cc(OCC(=O)Nc3ccccc3)ccc12 | 98 | 92 | 87 | -4
CCN(CC)CC(=O)Nc1sc2c(c1C#N)CCCC2 | 106 | 115 | 90 | -40
O=C(Nc1cc(F)ccc1F)N1CCN(Cc2nc3cccnc3n2-c2cccc(F)c2)CC1 | 103 | . | . | 2
Cc1cccc(OCC(=O)NCC2(N3CCN(C)CC3)CCCCC2)c1 | 101 | 105 | 85 | -16
CC(C)CCn1c(=O)c2ccccc2n2c(CSc3n[nH]c(N)n3)nnc12 | . | 89 | 92 | 1
CCN(CCCNC(=O)Cc1c(C(=O)O)n(CC)c2ccccc12)Cc1ccccc1 | 103 | . | . | 9
CN1/C(=C/C(=O)CSC2CCCC2)C(C)(C)c2ccccc21 | . | 94 | 105 | -5
O=C(NCCc1cnc[nH]1)c1ccc(CN2C(=O)CCn3nc(-c4ccc(Cl)cc4)cc32)cc1 | 103 | . | . | 2
CCOc1ccc(OCC)c(NC(=O)C2CCCN(c3nc4cccnc4s3)C2)c1 (stereo not given) | 108 | . | . | -3
Cc1noc2nc(C)n(CC(=O)NCCN3CCCC3)c(=O)c12 | 102 | . | . | -14
CCCCOc1ccc2c(c1)C(=O)c1cc(O)ccc1-2 | 103 | 21 | 29 | -26
CN1C=CC=C/C1=C1\SC(=S)N(Cc2ccccc2)C1=O | 106 | 90 | 74 | -119
O=C(O)CSc1nncc2ccccc12 | 94 | . | . | -27
Cc1cc(C)c2oc(C(=O)Nc3ccc(S(=O)(=O)N4CCC(C)CC4)cc3)cc(=O)c2c1 | 102 | 98 | 81 | -16
COc1ccc(CCNC(=O)CCc2c(C)nc3c(c(C)nn3-c3ccccc3)c2C)c(OC)c1 | 101 | 103 | 88 | -15
CN(C)c1ccc(C(CNS(C)(=O)=O)N2CCOCC2)cc1 (stereo not given) | 98 | . | . | -25
CC(C)(Sc1cc(C(C)(C)C)c(O)c(C(C)(C)C)c1)Sc1cc(C(C)(C)C)c(O)c(C(C)(C)C)c1 | . | 97 | 86 | -38&5&-20
CC1=NN(CCC(=O)O)CC1 | 105 | 101 | 82 | -12
CSCCNC(=O)Nc1ccc(Cl)cc1 | 108 | 98 | 82 | -13
OC1CC(c2ccccc2)NC2(CCCCC2)C1 (stereo not given) | 103 | 90 | 88 | -13
Cc1cccc(-c2nc3c(cnn3-c3ccccc3)c(=O)n2-c2ccc(Cl)cc2)c1 | 106 | 99 | 93 | 12
CCc1nc2ccc(C(=O)NC)cc2nc1CC | 104 | 92 | 99 | -17
Cc1cc(-n2c(C)nc3ccccc3c2=O)ccc1NC(=O)c1cccc([N+](=O)[O-])c1 | 94 | 126 | 86 | .
CCOC(=O)c1c(C)[nH]c(C)c1S(=O)(=O)N1CCCC(C(=O)Nc2ccc(OC)c(Cl)c2)C1 (stereo not given) | 110 | 121 | 86 | .
COc1ccc(-c2nc3sccn3c2Nc2ccc3c(c2)OCCO3)cc1 | 99 | . | . | -10
Cc1ccc(-n2ccc(=O)c(C(=O)Nc3cccnc3)n2)cc1 | 104 | . | . | -79
CC(C)C(c1nnnn1C(C)(C)C)N(Cc1cc2cc3c(cc2[nH]c1=O)OCCO3)C1CCCCC1 (stereo not given) | 99 | 105 | 121 | 4
Cn1cc(C(=O)Nc2cccc(Br)c2)c2[nH]c(=O)n(-c3ccccc3)c(=O)c21 | 102 | . | . | -34
COc1ccc(N2CCN(C(=O)C3CCN(S(=O)(=O)c4cccc5nonc45)CC3)CC2)cc1 | 107 | 103 | 106 | .
NC(=O)c1ccc(F)c(F)c1 | . | 109 | 87 | -16
Cc1ccc(CNC(=O)CCc2nnc3n(C)c(=O)c4sccc4n23)cc1 | 99 | 84 | 99 | 11
